# Screens from PubChem BioAssay.
# Calb FLC = C. albicans growth modulation with fluconazole | C. albicans CaCi-2 (fluconazole-resistant clinical isolate) + fluconazole, Alamar Blue growth, 48 h | growth inhibition, % (concentration not given with the values) | 300,000 tested, 0.57% active;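 active = most replicates above 75%; inconclusive = exactly half above 75%; inactive = most below 75%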;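 also: all wells also contain fluconazole at 8 µg/ml as a sub-toxic cotreatment; 0% = median of DMSO wells and 100% = median of geldanamycin control wells; wells of about 8 µL received 7.5 nL stock; the first replicate is given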
# Vif TR-FRET = inhibitors of Vif binding to APOBEC3G peptide, primary screen, biochemical, TR-FRET, GST-Vif 1-94, biotin-A3G peptide, dose response retest (AID 1117319) | TR-FRET GST-Vif / biotin-A3G peptide binding; higher % means a stronger effect; test concentration not given here; strong numbers were not always called active | one-dose inhibition, %; IC50 in µM for titrated hits | 260,000 tested, 0.57% active;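 active = above the screen mean plus three standard deviations and confirmed in dose response; inconclusive = results disagree or hit not tested in dose response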;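 also: Vif residues 1-94 fused to GST binding biotinylated APOBEC3G peptide 110-148; 0% = full assay without inhibitor and 100% = GST in place of GST-Vif; retest series ran down from 100 µM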
# LANA-H2B inh = blocks KSHV LANA binding to histone H2A/H2B; Q9QR71; cell-free LANA-H2A/H2B peptide, fluorescence polarization; inhibition, % (test concentration not listed); 320,000 tested, 0.6% active; in the data active = inhibition mostly above about 10%, no sharp cut-off; inactive = mostly below about 6.7%;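 also: stock transfer was 7.5 nL into about 10 µL; 0% = median of vehicle wells and 100% = median of positive control wells; one replicate is shown; the record names a cut of 25% in any replicate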
# Beta2AR agonist = agonists of human beta-2 adrenergic receptor inducing internalization | Am2.2-beta2AR cells, FAP receptor internalization, flow cytometry; reference of the scale not given here | response, % (concentration not given with the values) | 340,000 tested, 0.43% active;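 active = response above a set limit, near 3 SD of response in nonfluorescent compounds, cut at about 42% in these data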;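 also: stock transfer was 100 nL into about 11 µL; a reference agonist was the positive control; negative values mostly stem from fluorescent compounds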
# Target sequence (P07550 whole entry, looked up): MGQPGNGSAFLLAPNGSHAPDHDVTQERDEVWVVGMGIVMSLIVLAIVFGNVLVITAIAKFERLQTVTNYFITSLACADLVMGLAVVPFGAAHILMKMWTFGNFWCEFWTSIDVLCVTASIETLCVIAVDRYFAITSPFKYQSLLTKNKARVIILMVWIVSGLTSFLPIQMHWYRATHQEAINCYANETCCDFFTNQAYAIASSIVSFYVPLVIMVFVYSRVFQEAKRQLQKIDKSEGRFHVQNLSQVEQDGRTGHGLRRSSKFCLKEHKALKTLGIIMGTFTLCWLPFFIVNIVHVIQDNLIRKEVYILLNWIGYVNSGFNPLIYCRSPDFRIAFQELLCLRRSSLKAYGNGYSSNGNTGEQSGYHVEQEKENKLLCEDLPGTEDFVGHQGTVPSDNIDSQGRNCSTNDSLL
# RanGTP-Impb inh = inhibitors of RanGTP-importin-beta interaction, primary screen, biochemical, FRET, CFP-Ran, YFP-importin-beta, homogeneous | cell-free CFP-Ran/YFP-importin-beta FRET ratio | inhibition, % (no concentration beside the values) | 300,000 tested, 1.1% active | AID 2216;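 active = most replicates above 15%; inconclusive = exactly half above 15%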;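 also: 0% = DMSO wells and 100% = Ran loaded with GDP instead of GTP; wells of about 40 µL received 100 nL stock; the first replicate is given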
# ALR inh = blocks human ALR sulfhydryl oxidase activity. P55789. purified ALR, DTT oxidation, H2O2 HRP-luminol luminescence. inhibition, % (concentration not given with the values). 290,000 tested, 3.8% active;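 active = mean and each replicate at 75% or more; inconclusive = only one of the two met; inactive = neither met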;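 also: stock transfer was 7.5 nL into about 7.5 µL; 0% = neutral wells and 100% = wells with inactivated enzyme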
# Target sequence (P55789 whole entry, looked up): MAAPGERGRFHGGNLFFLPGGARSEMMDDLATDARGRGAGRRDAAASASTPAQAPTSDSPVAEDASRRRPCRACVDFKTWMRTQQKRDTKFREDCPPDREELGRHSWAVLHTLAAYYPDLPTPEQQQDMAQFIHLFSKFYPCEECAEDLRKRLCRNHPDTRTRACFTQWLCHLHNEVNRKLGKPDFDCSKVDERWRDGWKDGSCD
# HNF4A DNA FP = change in binding of human HNF4 alpha to DNA; P41235; HNF4a-FITC DNA binding, fluorescence polarization, 1 h; activity change, % at 10 µM; 360,000 tested, 0.3% active; in the data active = activity change above about 30%, passing the limit was not always enough;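 also: controls were the assay level and a saturating level of protein; the project sought stronger binding though the title names inhibitors; some compounds called inactive have numbers as strong as hits; positive values seem to mean higher polarization but the record does not say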
# Target sequence (P41235 whole entry, looked up): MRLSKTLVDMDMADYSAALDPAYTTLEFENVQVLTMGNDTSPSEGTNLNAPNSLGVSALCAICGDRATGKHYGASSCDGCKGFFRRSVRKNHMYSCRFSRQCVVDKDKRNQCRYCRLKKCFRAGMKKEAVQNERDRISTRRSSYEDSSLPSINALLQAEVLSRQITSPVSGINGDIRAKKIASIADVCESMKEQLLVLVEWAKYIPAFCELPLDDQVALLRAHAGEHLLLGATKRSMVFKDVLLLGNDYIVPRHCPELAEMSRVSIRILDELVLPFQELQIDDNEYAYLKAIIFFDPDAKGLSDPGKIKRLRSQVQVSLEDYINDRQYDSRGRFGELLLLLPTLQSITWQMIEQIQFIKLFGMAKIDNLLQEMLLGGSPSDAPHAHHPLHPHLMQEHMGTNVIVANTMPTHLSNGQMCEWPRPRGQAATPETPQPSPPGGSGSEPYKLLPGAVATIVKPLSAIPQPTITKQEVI
# Numbers without * were called inactive; ? = inconclusive; . = no result given. Random draw from the library, and some 6.3% of all compounds hit somewhere here.
# The opening 3 records (preview)
SMILES,Calb FLC,Vif TR-FRET,LANA-H2B inh,Beta2AR agonist,RanGTP-Impb inh,ALR inh,HNF4A DNA FP
CCOC(=O)c1c(NC(=O)CCC(=O)NCc2ccco2)sc2c1CCCC2,1,6%,1.1,3,-3.8,4,3.3
CCOc1ccc(NC(=O)CN2CCN(CC(=O)Nc3ccc(OC)cc3)CC2)cc1,-24,8%,-2.8,-1,1.3,-10,-2.1
O=c1c2cccnc2[nH]c(=S)n1CCC1=CCCCC1,36,3%,3.3,13,-4.1,.,4.3

# The whole of this part (from the top)
SMILES,Calb FLC,Vif TR-FRET,LANA-H2B inh,Beta2AR agonist,RanGTP-Impb inh,ALR inh,HNF4A DNA FP
CCOC(=O)c1c(NC(=O)CCC(=O)NCc2ccco2)sc2c1CCCC2,1,6%,1.1,3,-3.8,4,3.3
CCOc1ccc(NC(=O)CN2CCN(CC(=O)Nc3ccc(OC)cc3)CC2)cc1,-24,8%,-2.8,-1,1.3,-10,-2.1
O=c1c2cccnc2[nH]c(=S)n1CCC1=CCCCC1,36,3%,3.3,13,-4.1,.,4.3
S=C(c1ccc(N2CCOCC2)cc1)N1CCOCC1,-4,17%,-0.1,1,-2.5,.,-4.0
O=C(O)c1cccc(-c2nnn(Cc3ccccc3Cl)n2)c1,3,?,-2.4,8,1.5,9,4.1
CC(=O)N1CCOc2ccc(S(=O)(=O)N3CCN(c4cccc(C(F)(F)F)c4)CC3)cc21,38,0%,-5.6,-4,3.8,-2,1.2
CCOc1ccc(-n2c(-c3ccco3)n[nH]c2=S)cc1,14,3%,7.3,12,2.9,26,2.3
CCC(C)[C@H]1CNC(=S)N1CCc1cc(C(F)(F)F)cc(C(F)(F)F)c1 (some centres undefined),-12,5%,2.3,1,-2.3,-11,-1.6
CCN1C(=O)/C(=C\c2cccn2-c2ccc([N+](=O)[O-])cc2)N(CC)C1=S,-3,.,-3.1,-1,-1.8,15,-2.1
COc1cccc(N2C(N)=NC(N)=NC2(C)C)c1,-2,-3%,1.0,1,?,1,1.5
CC(=O)Nc1ccccc1OCC(=O)N(Cc1ccccc1)C(C)C,35,.,1.9,-1,1.4,-3,-1.9
O=C(CSc1nnc(-c2cccs2)n1-c1ccccc1)N1CCCC1,-5,-5%,1.8,-9,0.4,3,-5.1
Cc1cc(-c2ccccc2)n2nc(C)c(C#N)c2n1,4,31%,-2.5,-4,-0.7,-2,0.2
COc1cc(NC(=O)C2CCCN2C(=O)OCc2ccccc2)cc(OC)c1 (centres undefined),-12,-5%,3.7,1,2.8,-6,0.0
COc1ccc(-c2c3c(=O)n(C)c(=O)n(C)c3cn2N2CCOCC2)cc1,-5,8%,-0.2,8,3.8,-33,1.8
CCCCN(C(=O)c1cc(-c2ccco2)nc2ccccc12)c1c(N)n(CCCC)c(=O)[nH]c1=O,15,22%,-3.9,2,?,0,-13
CC1(C)Cc2nc3sc(C(=O)O)c(N)c3cc2CS1,0,18µM*,-4.0,.,?,-5,.
Cc1cccc(C(=O)Nc2cc(S(=O)(=O)N3CCOCC3)ccc2N2CCCC2)c1,.,2%,.,5,.,.,-3.7
CCC1=C/C(=C/c2sc3ccccc3[n+]2CC)CC(C)(C)C1,?,?,2.5,1,?,-1,.
COc1ccc2cc1Oc1ccc(cc1)C[C@H]1c3cc(c(OC)cc3CCN1C)Oc1c(OC)c(OC)cc3c1[C@H](C2)N(C)CC3,.,25%,-3.3,32,-3.7,-3,7.0
CCCCC(NC(=O)Cc1c(C)c2cc3c(-c4ccccc4)coc3c(C)c2oc1=O)C(=O)O (centres undefined),21,1%,-0.9,12,5.8,98*,-0.2
COc1cc(C(C)=NNC(=O)c2ccncc2)ccc1O,.,0%,.,-7,.,.,-2.6
O=C(Nc1nnc(CCN2CCCCC2)s1)C1CCCCC1,14,9%,-1.3,6,1.6,5,2.5
COC(=O)C1=C(C)N(C(C)c2ccccc2)C(=O)C1 (centres undefined),-9,.,3.0,5,1.1,9,-2.6
CCOc1ccc(S(=O)(=O)N2CCN=C2c2ccccc2)c(C)c1C,2,.,0.5,-11,3.5,-5,-0.1
Cc1ccc(NS(=O)(=O)c2ccc3c(c2)CC(=O)N3)c(C)c1,-14,.,-4.1,2,0.9,-1,0.6
CN(C(=O)CSc1nnc(-c2ccco2)n1C)C1CCCCC1,.,4%,.,-8,.,.,-2.2
C[C@@]12C(=O)N(c3ccc(F)cc3)C(=O)N1[C@@H]1c3ccccc3OC[C@@H]1[C@H]2c1ccccc1,15,.,8.1,1,1.3,-4,0.0
O=C1NC(=O)C(CC(=O)N(Cc2ccco2)C2(C(=O)NC3CCCC3)CCCCC2)N1 (centres undefined),2,-4%,1.3,-3,5.0,.,1.3
C[C@@H](Oc1ccccc1)c1nnn(Cc2ccccc2)c1-c1c([C@@H](C)Oc2ccccc2)nnn1Cc1ccccc1,2,.,-6.0,.,-0.4,8,.
Cc1ccc(C(=O)CSc2nc(N)cc(=O)[nH]2)cc1C,8,16%,3.1,7,-0.9,99*,-2.5
C/C=C/c1ccc(OCCCCN(C)Cc2ccccc2)c(OC)c1,1,-1%,-2.7,3,2.1,0,3.0
CCOC(=O)C1CCCN(C(=O)COC(=O)c2ccc(C#N)cc2)C1 (centres undefined),11,-3%,-2.1,2,3.9,14,-0.5
CC(C)NC(=O)c1c(O)c2ccccc2[nH]c1=O,35,22%,-1.5,-16,2.6,-4,-5.5
CCC(=O)NNC(=O)CCC(=O)Nc1cccc(Cl)c1C,17,.,2.0,2,1.8,-24,0.2
CCc1ccc2c(c1)C(c1ccc([N+](=O)[O-])cc1)=NNC(c1ccc(F)cc1)=N2,7,-4%,4.4,-13,-0.4,8,-1.3

# Reprinted at random: six compounds from above.
SMILES,Calb FLC,Vif TR-FRET,LANA-H2B inh,Beta2AR agonist,RanGTP-Impb inh,ALR inh,HNF4A DNA FP
CN(C(=O)CSc1nnc(-c2ccco2)n1C)C1CCCCC1,.,4%,.,-8,.,.,-2.2
C[C@@H](Oc1ccccc1)c1nnn(Cc2ccccc2)c1-c1c([C@@H](C)Oc2ccccc2)nnn1Cc1ccccc1,2,.,-6.0,.,-0.4,8,.
CCC(=O)NNC(=O)CCC(=O)Nc1cccc(Cl)c1C,17,.,2.0,2,1.8,-24,0.2
O=C1NC(=O)C(CC(=O)N(Cc2ccco2)C2(C(=O)NC3CCCC3)CCCCC2)N1 (centres undefined),2,-4%,1.3,-3,5.0,.,1.3
C[C@@]12C(=O)N(c3ccc(F)cc3)C(=O)N1[C@@H]1c3ccccc3OC[C@@H]1[C@H]2c1ccccc1,15,.,8.1,1,1.3,-4,0.0
CCOC(=O)C1CCCN(C(=O)COC(=O)c2ccc(C#N)cc2)C1 (centres undefined),11,-3%,-2.1,2,3.9,14,-0.5

# Additional compounds.
SMILES,Calb FLC,Vif TR-FRET,LANA-H2B inh,Beta2AR agonist,RanGTP-Impb inh,ALR inh,HNF4A DNA FP
CCc1[nH]nc(C(=O)N/N=C/c2ccncc2)c1C,-8,-4%,-3.3,1,0.6,-3,-1.3
CN1CCN(CC#CCC(O)(c2ccccc2)c2ccccc2)CC1,-2,.,-1.2,2,-0.7,.,0.4
CC(OCCN(C)C)C(=O)C12CC3CC(CC(C3)C1)C2 (centres undefined),-2,-9%,3.5,3,-1.3,-4,1.0
CN1C(=O)C(/C(N)=N/NC(=O)c2ccccc2)C2CC1(C)Oc1ccccc12 (centres undefined),6,.,4.3,7,4.6,35,-0.8
O=C(Nc1c2ccccc2nc2ccccc12)C(Cl)(Cl)Cl,-2,0%,-3.3,37,135*,-17,-21
Cc1ccccc1NS(=O)(=O)c1ccc(C(=O)N2CCN(c3ccccn3)CC2)cc1,11,-6%,4.4,-1,2.9,-11,-2.1
CN(C)S(=O)(=O)c1ccc2[nH]cc(/C=C/c3nc4ccccc4c(=O)n3-c3ccccc3)c2c1,6,-5%,-4.7,15,29*,2,1.2
Cc1ccc(C2C3=C(CC(C)(C)CC3=O)N(CCN3CCOCC3)C3=C2C(=O)CC(C)(C)C3)cc1,-3,0%,1.0,2,125*,-3,1.2
O=C(O)c1cccc(COc2ccc(CO)cc2Cl)c1,?,8%,-1.9,-3,0.8,-2,1.2
CN(C)CCN1C(=O)C(=O)/C(=C(/O)c2ccc(S(=O)(=O)N3CCOCC3)cc2)C1c1ccc(F)cc1 (centres undefined),30,.,-10,-6,2.8,.,-2.4
CC(=O)c1c(C)[nH]c(C(=O)Nc2nc(-c3ccc(Cl)cc3)cs2)c1C,-4,-15%,-2.8,11,-2.0,-2,-2.6
Cc1ccc(CNCC2CCCO2)s1 (centres undefined),0,-2%,-2.7,-2,2.1,-2,-1.8
Cc1ccsc1/C=N/n1c(COc2ccccc2)n[nH]c1=S,11,.,-1.3,-2,0.2,-5,0.3
C/C(=C\C(=O)c1cccnc1)Nc1ccc(C)c(C)c1,-9,-7%,2.7,-1,6.9,-8,-1.7
CCC(=O)c1ccc(N2CCN(C(=O)COc3ccccc3F)CC2)c(F)c1,-5,2%,0.5,-6,-2.8,-5,6.0
CC1(C)NC(=O)N(CCOc2ccc([N+](=O)[O-])cc2)C1=O,-33,.,4.6,5,-2.9,-3,-2.3
O=C(Nc1ccc(Cl)cc1)Nc1ccc2c(c1)OCO2,-2,12%,3.5,1,1.5,-3,1.8
CCOc1ccc(CCNC(=O)CCS(=O)(=O)c2ccc(Br)cc2)cc1OCC,-2,8%,3.6,-3,?,.,2.0
[O-]/[N+](=C\c1ccc(F)cc1)c1ccccc1,0,3%,0.5,5,3.9,-17,-1.6
CCCC(=O)n1nc(-c2cccnc2)nc1NCc1cccs1,-3,-1%,.,19,2.1,.,2.0
Cc1ccc(-c2cn(S(=O)(=O)c3cccc([N+](=O)[O-])c3)nc2N)cc1,-6,6%,-2.9,-8,-3.0,-10,0.1
COc1ccc(S(=O)(=O)/C(C#N)=C/Nc2cccc(F)c2)cc1,-3,-9%,0.5,-6,2.1,-5,1.8
O=CNn1cnc2c(oc3nc(-c4ccccc4)cc(-c4ccco4)c32)c1=O,20,.,-6.3,-7,-12,6,-30
COc1ccc(COC(=O)c2c(C)nn(-c3ccccc3)c2Cl)cc1,8,.,11,5,3.6,-2,3.6
CN(C(=O)c1ccc2c(c1)CCN2S(C)(=O)=O)c1ccccc1,-38,.,0.4,-13,2.0,-17,-1.9
COC(=O)c1ccc(-n2c(C)cc(C(=O)CSc3ccc(NC(C)=O)cc3)c2C)cc1,4,3%,-5.5,0,0.6,91*,4.0
COc1cccc(NC(=O)C2Cc3ccccc3CN2C(=O)c2ccco2)c1 (centres undefined),-2,.,2.6,-1,5.5,.,2.2
CC1CCc2nc(NC(=O)c3ccc(N4C(=O)CCC4=O)cc3)sc2C1 (centres undefined),-1,3%,3.1,1,1.2,5,-5.1
CCC1CCCCN1C(=O)COc1c(Br)cc(Br)c2cccnc12 (centres undefined),1,-18%,1.9,8,7.9,-47,0.0
O=C(NNC(=O)C12CC3CC(CC(O)(C3)C1)C2)c1csc(N2CCOCC2)n1,2,.,-1.8,-12,-0.6,-11,3.1
Nc1ccn(C2CCCO2)c(=O)n1 (centres undefined),.,1%,.,-1,.,.,2.0
O=C(OCC(=O)N1CCN(c2ccccc2)CC1)c1cccc(Cl)c1,-8,1%,-1.8,14,2.5,11,-2.0
CC(=O)Nc1cc(C(=O)N2CCc3ccccc3C2)ccc1Sc1ccc(F)cc1,-9,.,0.3,-6,3.0,-2,-2.9
CCCS(=O)(=O)N1CCCC(C(=O)N2CCN(c3ccccn3)CC2)C1 (centres undefined),-2,23%,-1.0,0,2.8,1,-1.0
NC(=O)c1cc([N+](=O)[O-])ccc1NCCc1ccccc1,3,.,0.5,-2,-3.6,-7,-0.8
Cc1cc(NC(=O)CCC2CCCCC2)no1,-7,6%,-2.8,6,4.8,7,1.7
CC(C)(C)C(=O)NCC12C=CC(O1)C1C(=O)N(c3ccccc3)C(=O)C12 (centres undefined),-10,-5%,2.8,-2,0.8,.,-2.1
